Source: PubChem
Rce1 inhib: blocks yeast Ras-converting enzyme | Q03530 | yeast membranes, quenched prenylated peptide cleavage fluorescence | calls only | 290,000 compounds, 0.27% hits;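 active = fall in fluorescence gain of 50% or more versus controls, with final raw signal at or below 3038400; inconclusive = same 50% fall but final raw signal above 3038400; inactive = fall in fluorescence gain under 50%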;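 note: plate controls were neutral control wells for no effect and wells lacking membranes for full effect; tested at 10 µM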
Target sequence (Q03530 whole entry, looked up): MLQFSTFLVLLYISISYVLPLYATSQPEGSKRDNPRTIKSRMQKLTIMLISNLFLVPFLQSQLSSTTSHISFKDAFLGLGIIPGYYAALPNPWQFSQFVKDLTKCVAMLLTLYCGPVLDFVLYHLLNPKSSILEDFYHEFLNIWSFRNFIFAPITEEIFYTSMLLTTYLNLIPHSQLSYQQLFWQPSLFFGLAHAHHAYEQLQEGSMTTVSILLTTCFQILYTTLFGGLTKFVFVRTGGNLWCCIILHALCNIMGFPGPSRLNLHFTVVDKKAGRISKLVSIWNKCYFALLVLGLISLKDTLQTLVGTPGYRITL
Yeast UUG start: alters start codon recognition fidelity in yeast; S. cerevisiae UUG-firefly luciferase reporter, luminescence/redox ratio; activity score, % at 18.7 µM; 350,000 compounds, 0.13% hits;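 active = replicate mean at a twofold rise or more, about +100% in these data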;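 note: firefly luciferase made from a UUG start codon reports start codon fidelity; reporter light over untreated wells divided by growth signal over untreated wells; some hits fall short of that in this replicate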
CSC inhib: cancer stem cell inhibition | inhibition, % at 7.5 µM | 300,000 compounds, 1.1% hits | AID 2717 | cancer stem cell-like cells viability, luminescence;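 active = mean at 75% or more and at least half the replicates too; inconclusive = mean and replicates disagree; tested in HMLE shEcad cells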;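 note: 0% = median of negative and 100% = median of positive control wells; the first replicate is given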
PABP polyA inh: PABP-poly(A) binding inhibition. 290,000 compounds, 1% hits. PABP-poly(A) RNA binding, fluorescence polarization. inhibition, % at 35 µM. P11940;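 active = 50% or more with normal probe brightness, or confirmed in later tests; inconclusive = above 50% with abnormal brightness, or retests that disagree; inactive = below 50% or failed in later tests; about a fifth of its hits are not listed in these tables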;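 note: calls also rest on retests at 20 µM and on dose response follow-up; controls were probe without protein and protein plus probe with vehicle; some compounds called inactive have numbers as strong as hits; many hits fall short of the cut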
HIV Env fusion: blocks HIV Env-driven cell-cell fusion; 360,000 compounds, 1.1% hits; inhibition, % at 12.3 µM; HeLa-JRFL Env/CEM21 cell fusion, luciferase;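 active = mean replicate inhibition score of at least 50 and every replicate individually at or above 50; inconclusive = only one of the two criteria met; inactive = mean below 50 and not all replicates reaching 50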;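 note: 0% = plate neutral controls and 100% = maraviroc near 300 nM; one replicate is shown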
eIF4H FP inh: inhibitors of RNA binding by human eIF4H; eIF4H fluorescence polarization binding assay; inhibition, % at 35 µM; 290,000 compounds, 0.94% hits; AID 2012;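 active = 50% or more with normal probe brightness, or confirmed in later tests; inconclusive = above 50% with abnormal brightness, or retests that disagree; inactive = below 50% or failed in later tests; about a fifth of its hits are not listed in these tables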;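 note: calls also rest on retests at 20 µM and on dose response follow-up; 0% = protein and probe with vehicle and 100% = probe without protein; strong numbers were not always called active; many hits fall short of the cut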
MT1-MMP act inh: inhibitors of human MT1-MMP activation; P50281; HT1080 RFP-PRO-GFP cells, GFP/RFP ratio fluorescence, overnight; percent of plate control window, DMSO zero; 360,000 compounds, 0.061% hits; AID 651647; GFP/RFP ratio change, % at 20 µM;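 active = GFP/RFP ratio change of at least 30% with cell ATP level not reduced by more than half and red fluorescence within 50% of control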; note: strong numbers were not always called active
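Test system: HT1080 cells expressing an RFP-PRO-GFP fluorescent reporter construct / Compound dosing: single-point 20 µM compound, 1% DMSO / Schedule: cells overnight before dosing, compound overnight, 37 °C, 5% CO2 / Evaluation: GFP/RFP fluorescence ratio / Control set: DMSO and RFP-L50D-GFP cell wells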
MT1-MMP act inh RFP: recorded beside MT1-MMP act inh, whose call it bears; RFP signal change, %; measured here: RFP expression control read;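 0 = vehicle wells; hits needed this value within 50% of zero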
The depositor's hits bear a star. The list is partial, so the mix of outcomes need not match the whole.

For CC1(C)CC(=O)c2cc(C(=O)Nn3cnnc3)c(=O)n(-c3ccccc3)c2C1 the results were Rce1 inhib inactive, Yeast UUG start -12, CSC inhib 5, PABP polyA inh 3, eIF4H FP inh -16, MT1-MMP act inh 4 and MT1-MMP act inh RFP -1.
Screening COc1ccc(NC(=O)CSc2ccc(NC(C)=O)cc2)cc1S(=O)(=O)N1CCOCC1 returned Yeast UUG start -15, CSC inhib -16, HIV Env fusion 7, MT1-MMP act inh -1 and MT1-MMP act inh RFP 2.
Screening O=C(NCCc1ccccc1)c1ccc2c(c1)N(Cc1ccccc1)C(=O)CS2=O (stereo not given) returned Rce1 inhib inactive, Yeast UUG start -6, CSC inhib -21, PABP polyA inh -12, HIV Env fusion -22, eIF4H FP inh 0, MT1-MMP act inh -3 and MT1-MMP act inh RFP 3.
Screening O=C1c2ccccc2S(=O)(=O)c2cc(C(=O)N3CCC(O)CC3)ccc21 returned Rce1 inhib inactive, Yeast UUG start -2, CSC inhib -11, HIV Env fusion -4, MT1-MMP act inh 3 and MT1-MMP act inh RFP 4.
CCOc1ccc(-c2nnn(CC(=O)NCc3ccc(OC)cc3)n2)cc1OCC was read as Yeast UUG start -6, CSC inhib 1, PABP polyA inh -3, eIF4H FP inh -3, MT1-MMP act inh -2 and MT1-MMP act inh RFP 2.
Screening Cc1cc(=O)[nH]c(N/N=C/c2sccc2C)n1 returned Rce1 inhib inactive, Yeast UUG start -17, CSC inhib -3, PABP polyA inh 1, HIV Env fusion -24, eIF4H FP inh -4, MT1-MMP act inh 1 and MT1-MMP act inh RFP 2.
COc1ccc(-n2c(=S)[nH]c3cc(C(=O)NCc4ccccc4)ccc3c2=O)c(OC)c1 was read as Rce1 inhib inactive, Yeast UUG start -11, CSC inhib 6, PABP polyA inh -9, HIV Env fusion 25, eIF4H FP inh -5, MT1-MMP act inh 2 and MT1-MMP act inh RFP -4.
For O=c1nc(-c2ccccc2)c(-c2ccccc2)n[nH]1 the results were Rce1 inhib inactive, Yeast UUG start -5, CSC inhib -7, PABP polyA inh -1, HIV Env fusion 2, eIF4H FP inh -17, MT1-MMP act inh 5 and MT1-MMP act inh RFP 3.
Screening CC(=O)Nc1cc2ccccc2oc1=O returned Rce1 inhib inactive, CSC inhib 12, PABP polyA inh inconclusive, HIV Env fusion -11, eIF4H FP inh -16, MT1-MMP act inh 1 and MT1-MMP act inh RFP 6.
Screening CCn1cc(Br)c(-c2nc3ccccc3c(=O)n2N)n1 returned Rce1 inhib inactive, Yeast UUG start -17, CSC inhib -8, PABP polyA inh -8, HIV Env fusion -93, eIF4H FP inh 2, MT1-MMP act inh 5 and MT1-MMP act inh RFP 7.
Screening O=C(NCCC1=CCCCC1)c1cc(S(=O)(=O)N2CCOCC2)ccc1F returned Rce1 inhib inactive, CSC inhib -16, HIV Env fusion 1, MT1-MMP act inh -2 and MT1-MMP act inh RFP 2.
CCN(Cc1ccccc1)C(=O)Cn1c(=O)n(CCC(=O)N2CCCCC2)c(=O)c2sccc21 was read as Rce1 inhib inactive, Yeast UUG start -11, CSC inhib -12, PABP polyA inh 8, HIV Env fusion 4, eIF4H FP inh 0, MT1-MMP act inh 0 and MT1-MMP act inh RFP 2.
`CN(CCCNC(=O)CCC(=O)N1CCOc2ccccc21)Cc1ccccc1` gave Rce1 inhib inactive, Yeast UUG start -10, CSC inhib -8, PABP polyA inh -4, HIV Env fusion 8, eIF4H FP inh 4, MT1-MMP act inh 2 and MT1-MMP act inh RFP 2.
CC(=O)c1cccc(NC(=O)N2CCCC2C(=O)NC2CCCCC2)c1 (stereo not given) was read as Rce1 inhib inactive, Yeast UUG start -18, CSC inhib -7, PABP polyA inh -2, HIV Env fusion -107, eIF4H FP inh 3, MT1-MMP act inh 2 and MT1-MMP act inh RFP 3.
CCOC(=O)c1cc2sc(C)cc2n1CCCN1C(=O)c2ccccc2C1=O was read as Rce1 inhib inactive, Yeast UUG start -10, CSC inhib 10, PABP polyA inh -7, HIV Env fusion -15, eIF4H FP inh -9, MT1-MMP act inh -4 and MT1-MMP act inh RFP -6.
Screening Cc1cccc(C)c1NC(=S)Nc1c(C)n(C)n(-c2ccccc2)c1=O returned Rce1 inhib inactive, CSC inhib 6, PABP polyA inh 10, eIF4H FP inh 2, MT1-MMP act inh 4 and MT1-MMP act inh RFP 8.
Screening COc1cc(NC(=O)COc2ccc(-n3cnnn3)cc2)cc(OC)c1OC returned Yeast UUG start -3, CSC inhib -22, MT1-MMP act inh 3 and MT1-MMP act inh RFP -8.
`COc1ccc(C2C(C(=O)c3ccccc3)=C(C)Nc3nc4ccccc4n32)c(OC)c1` (stereo not given) gave Rce1 inhib inactive, Yeast UUG start -20, CSC inhib -3, PABP polyA inh -10, HIV Env fusion -10, eIF4H FP inh 6, MT1-MMP act inh -4 and MT1-MMP act inh RFP -1.
For CCOC(=O)c1sc(SC)nc1N the results were Rce1 inhib inactive, CSC inhib -15, PABP polyA inh -7, HIV Env fusion -11, eIF4H FP inh -2, MT1-MMP act inh 1 and MT1-MMP act inh RFP 2.
CCOc1ccc2c3c(c(=O)oc2c1OCC)CCCC3 was read as Rce1 inhib inactive, CSC inhib -3, PABP polyA inh -1, eIF4H FP inh -3, MT1-MMP act inh 2 and MT1-MMP act inh RFP 0.
O=C(Nc1ccc(Cl)cc1C(=O)NCc1cccnc1)c1ccc(Cl)cc1Cl was read as Rce1 inhib inactive, Yeast UUG start -7, CSC inhib 29, PABP polyA inh 3, HIV Env fusion -5, eIF4H FP inh -13, MT1-MMP act inh -6 and MT1-MMP act inh RFP -5.
Screening Cc1ccc(NC(=O)CSc2sc3c(O)cc(=O)[nH]c3c2C#N)cc1C returned Rce1 inhib inactive, Yeast UUG start -9, CSC inhib -3, PABP polyA inh 4, HIV Env fusion -7, eIF4H FP inh 22, MT1-MMP act inh 0 and MT1-MMP act inh RFP 5.
`O=C(N/N=C/C1=C(N2CCOCC2)C(=C\c2ccccc2)/CC1)Nc1ccccc1` gave Rce1 inhib inactive, CSC inhib 4, PABP polyA inh -6, HIV Env fusion 0, eIF4H FP inh 2, MT1-MMP act inh -8 and MT1-MMP act inh RFP -4.
`CC(C)NC(=O)CCS(=O)(=O)c1cccc2nonc12` gave Rce1 inhib inactive, Yeast UUG start -8, CSC inhib 0, PABP polyA inh -9, HIV Env fusion 8, eIF4H FP inh -5, MT1-MMP act inh 2 and MT1-MMP act inh RFP 3.
Screening Cc1cc(O)c(C2=Nc3ccccc3SC(c3ccc(Cl)cc3)C2)c(=O)o1 (stereo not given) returned Rce1 inhib inactive, CSC inhib 21, PABP polyA inh 6, HIV Env fusion -111, eIF4H FP inh -4, MT1-MMP act inh -13 and MT1-MMP act inh RFP -7.
Screening CCCCN(C)CCCNC(=O)C1CCC(CNS(=O)(=O)c2c(C)cc(C)cc2C)CC1 (stereo not given) returned Rce1 inhib inactive, Yeast UUG start 0, CSC inhib -2, PABP polyA inh 9, HIV Env fusion 0, eIF4H FP inh -9, MT1-MMP act inh 1 and MT1-MMP act inh RFP -2.
O=C(CSc1nnc(COc2ccc(Cl)cc2)o1)NC1CC2CCC1C2 (stereo not given) was read as Rce1 inhib inactive, Yeast UUG start -11, CSC inhib 1, PABP polyA inh -12, HIV Env fusion 3, eIF4H FP inh -4, MT1-MMP act inh 0 and MT1-MMP act inh RFP 0.
CCOC(=O)c1c(NC(=O)C2C3CCC(O3)C2C(=O)O)sc2c1CCCC2 (stereo not given) was read as Rce1 inhib inactive, CSC inhib -10, PABP polyA inh -5, HIV Env fusion 7, eIF4H FP inh 14, MT1-MMP act inh -4 and MT1-MMP act inh RFP 1.
For CC(C)c1ccc(/C=N/NC(=O)C2CCCC2)cc1 the results were Rce1 inhib inactive, Yeast UUG start -6, CSC inhib 19, PABP polyA inh -4, HIV Env fusion -94, eIF4H FP inh -6, MT1-MMP act inh 0 and MT1-MMP act inh RFP 1.
For CCOC(=O)c1ccc2c(c1)N(CC(=O)N1CCCCC1)C(=O)C(C)(C)O2 the results were Rce1 inhib inactive, Yeast UUG start -1, CSC inhib -5, PABP polyA inh -6, HIV Env fusion 2, eIF4H FP inh 2, MT1-MMP act inh 5 and MT1-MMP act inh RFP 5.
Screening CC(C)Cn1c(SCC(=O)N(C)c2c(N)n(Cc3ccccc3)c(=O)[nH]c2=O)nc2ccccc21 returned Rce1 inhib inactive, CSC inhib -12, HIV Env fusion 13, MT1-MMP act inh -2 and MT1-MMP act inh RFP -1.
`COC(=O)C1C/C(=N/NS(=O)(=O)c2ccc(C)cc2)CS1` (stereo not given) gave Rce1 inhib inactive, Yeast UUG start -7, CSC inhib 1, PABP polyA inh 12, HIV Env fusion -14, eIF4H FP inh -4, MT1-MMP act inh -3 and MT1-MMP act inh RFP 2.
Screening COc1ccc(N2CCN(Cc3nc4c(c(=O)n(C)c(=O)n4C)n3CC(C)=O)CC2)cc1 returned Rce1 inhib inactive, Yeast UUG start -12, CSC inhib 3, PABP polyA inh 0, eIF4H FP inh 0, MT1-MMP act inh 1 and MT1-MMP act inh RFP -6.
`O=C(/C=C/c1ccc(NC(=O)c2ccccc2-c2ccccc2C(=O)O)cc1)c1ccccc1` gave Rce1 inhib inactive, Yeast UUG start -16, CSC inhib 14, PABP polyA inh 3, HIV Env fusion -18, eIF4H FP inh -10, MT1-MMP act inh -3 and MT1-MMP act inh RFP -1.
`O=C(CSc1nnc(CN2CCOCC2)n1-c1ccccc1)N1CCc2ccccc21` gave Rce1 inhib inactive, Yeast UUG start -24, PABP polyA inh -3, HIV Env fusion 11, eIF4H FP inh 8, MT1-MMP act inh 5 and MT1-MMP act inh RFP 6.
For Cc1ccc(CSc2nnc(-c3ccco3)o2)cc1 the results were Rce1 inhib inactive, Yeast UUG start -21, CSC inhib -15, PABP polyA inh 0, eIF4H FP inh 8, MT1-MMP act inh 9 and MT1-MMP act inh RFP 2.
For CCOC(=O)N1CCN(C(=O)Nc2sc3nc4n(c(=O)c3c2C)CCC(C)CC4)CC1 (stereo not given) the results were Rce1 inhib inactive, Yeast UUG start -4, CSC inhib -7, PABP polyA inh -6, eIF4H FP inh -3, MT1-MMP act inh -7 and MT1-MMP act inh RFP 1.
For COc1cccc(C2NC(=O)NC(C)=C2C(=O)Nc2ccccc2C)c1 (stereo not given) the results were Rce1 inhib inactive, PABP polyA inh -2 and eIF4H FP inh 6.
For Cc1cc(C(=O)Nc2ccc(N3CCCCC3)cc2)no1 the results were Rce1 inhib inactive, Yeast UUG start -50, CSC inhib -8, PABP polyA inh -4, HIV Env fusion -13, eIF4H FP inh 2, MT1-MMP act inh 7 and MT1-MMP act inh RFP 2.
Screening O=C(CSc1nnnn1-c1ccc(Cl)cc1)NC(=O)Nc1ccc2c(c1)OCCO2 returned Rce1 inhib inactive, Yeast UUG start -5, CSC inhib 13, PABP polyA inh 6, HIV Env fusion -59, eIF4H FP inh -5, MT1-MMP act inh 0 and MT1-MMP act inh RFP -3.
For Cc1cc(C)n2nc(-c3cccc(Br)c3)cc2n1 the results were Rce1 inhib inactive, Yeast UUG start -4, CSC inhib 5, PABP polyA inh 4, HIV Env fusion -84, eIF4H FP inh -6, MT1-MMP act inh -5 and MT1-MMP act inh RFP 2.
Screening CCc1cc(C(=O)N2CCCC(C(=O)c3cccc4ccccc34)C2)n(C)n1 (stereo not given) returned Rce1 inhib inactive, CSC inhib -9, PABP polyA inh -4, HIV Env fusion 46, eIF4H FP inh 0, MT1-MMP act inh -4 and MT1-MMP act inh RFP -20.
